STK33 kin inh: STK33 kinase inhibitors, primary screen, biochemical, luminescence, ADP-Glo, MBP substrate | inhibition, % at 12.5 µM | 27,000 compounds, 0.44% hits | Serine/threonine-protein kinase 33 (Homo sapiens), Q9BYT3; in the data active means inhibition above about 20%
Target sequence (Q9BYT3 whole entry, looked up): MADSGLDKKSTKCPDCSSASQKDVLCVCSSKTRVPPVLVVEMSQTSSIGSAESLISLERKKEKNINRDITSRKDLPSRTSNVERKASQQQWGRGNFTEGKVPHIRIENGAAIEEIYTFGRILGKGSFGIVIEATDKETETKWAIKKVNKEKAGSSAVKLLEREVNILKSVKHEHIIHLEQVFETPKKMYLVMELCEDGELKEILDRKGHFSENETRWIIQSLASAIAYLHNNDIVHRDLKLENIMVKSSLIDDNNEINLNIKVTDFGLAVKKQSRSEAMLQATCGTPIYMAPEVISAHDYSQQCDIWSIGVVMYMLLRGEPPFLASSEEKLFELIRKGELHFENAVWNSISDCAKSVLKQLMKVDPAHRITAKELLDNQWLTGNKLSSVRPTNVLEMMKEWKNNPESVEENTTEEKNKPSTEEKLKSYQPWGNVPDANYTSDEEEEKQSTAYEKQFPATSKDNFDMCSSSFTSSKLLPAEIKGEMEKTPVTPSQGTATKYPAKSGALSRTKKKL
Starred values were filed as active, the others as inactive; & = joins results of further samples.

SMILES | STK33 kin inh
Nc1nc2ccc(OC(F)(F)F)cc2s1 | 2&0
Cc1ncc([N+](=O)[O-])n1CC(O)CCl (stereo not given) | -1
CC1=C(C(=O)O)N2C(=O)[C@@H](NC(=O)[C@H](N)c3ccccc3)[C@H]2SC1 | 1
NS(=O)(=O)c1cc(C(=O)O)c(NCc2ccco2)cc1Cl | -2
Cc1ccc(/C(=C\CN2CCCC2)c2ccccn2)cc1 | 1
CCC1(c2ccccc2)NC(=O)N(C)C1=O (stereo not given) | 3
CC(C)n1c(/C=C/[C@H](O)C[C@H](O)CC(=O)O)c(-c2ccc(F)cc2)c2ccccc21 | -5
NS(=O)(=O)c1ccc(NC(=O)CN2CCN(C(=O)c3ccccc3)CC2)cc1 | -4
C=C1C[C@]23C[C@@]1(O)CC[C@H]2[C@@]12C=C[C@H](O)[C@@](C)(C(=O)O1)[C@H]2[C@@H]3C(=O)O | 1
Clc1ccc(COC(Cn2ccnc2)c2ccc(Cl)cc2Cl)cc1 (stereo not given) | -11
CCC(NC(C)C)C(O)c1ccc(O)c(O)c1 (stereo not given) | 7
C[C@]12CCC(=O)C=C1CC[C@@H]1[C@@H]2[C@@H](O)C[C@@]2(C)[C@H]1CC[C@]2(O)C(=O)CO | 0
CC(C)NC[C@H](O)COc1cccc2ccccc12 | -19&5
CN1C2CC[C@@H]1CC(OC(=O)[C@H](CO)c1ccccc1)C2 (stereo not given in full) | 1

Individual results from the results shown:
STK33 kin inh, CC(C)NC[C@H](O)COc1cccc2ccccc12 : -19&5
STK33 kin inh, C[C@]12CCC(=O)C=C1CC[C@@H]1[C@@H]2[C@@H](O)C[C@@]2(C)[C@H]1CC[C@]2(O)C(=O)CO : 0
STK33 kin inh, CC(C)n1c(/C=C/[C@H](O)C[C@H](O)CC(=O)O)c(-c2ccc(F)cc2)c2ccccc21 : -5
STK33 kin inh, NS(=O)(=O)c1ccc(NC(=O)CN2CCN(C(=O)c3ccccc3)CC2)cc1 : -4
STK33 kin inh, CC1=C(C(=O)O)N2C(=O)[C@@H](NC(=O)[C@H](N)c3ccccc3)[C@H]2SC1 : 1
STK33 kin inh, C=C1C[C@]23C[C@@]1(O)CC[C@H]2[C@@]12C=C[C@H](O)[C@@](C)(C(=O)O1)[C@H]2[C@@H]3C(=O)O : 1
STK33 kin inh, NS(=O)(=O)c1cc(C(=O)O)c(NCc2ccco2)cc1Cl : -2

Some of the entries above in a different format:
compound	STK33 kin inh
NS(=O)(=O)c1cc(C(=O)O)c(NCc2ccco2)cc1Cl	-2
Cc1ccc(/C(=C\CN2CCCC2)c2ccccn2)cc1	1

Source: PubChem BioAssay (Broad Institute)

This is a subset; most or all hits stand in other tables.
